CtBP-E1A blk – inhibitors of CtBP/E1A interaction; AlphaScreen GST-E1A/His-CtBP binding, 1536-well; hits give low values; control for the full effect not named in the record; activity change, % (concentration not given with the values); hit rate 0.49% among 340,000; AID 651724; in the data active means activity change below about -65%; inconclusive means about -30% to -65%; inactive means above about -30%; also: % is scaled to controls: 0 for no effect and ±100 for the full control effect
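Protein mix (5X: 125 nM each GST-E1A, His-CtBP) was incubated with pinned compound 2 h at 37 deg C in dark, in 50 mM Tris pH 8.0 buffer with 300 mM NaCl. Glutathione donor and nickel acceptor beads followed; AlphaScreen signal read after 1 h.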
D2 agonist – agonists of human D2 dopamine receptor (beta-arrestin) | AID 624465 | P14416 | DiscoveRx PathHunter D2 beta-arrestin, luminescence, 90 min; 100% = 57 uM dopamine signal | activation, % (concentration not given with the values) | hit rate 0.084% among 360,000; in the data active = activation above about 40%; inconclusive = about 15% to 40%; inactive = below about 15%; also: compound concentration not given in the record; the text of the record calls up to 30% inactive
Target sequence (P14416 whole entry, looked up): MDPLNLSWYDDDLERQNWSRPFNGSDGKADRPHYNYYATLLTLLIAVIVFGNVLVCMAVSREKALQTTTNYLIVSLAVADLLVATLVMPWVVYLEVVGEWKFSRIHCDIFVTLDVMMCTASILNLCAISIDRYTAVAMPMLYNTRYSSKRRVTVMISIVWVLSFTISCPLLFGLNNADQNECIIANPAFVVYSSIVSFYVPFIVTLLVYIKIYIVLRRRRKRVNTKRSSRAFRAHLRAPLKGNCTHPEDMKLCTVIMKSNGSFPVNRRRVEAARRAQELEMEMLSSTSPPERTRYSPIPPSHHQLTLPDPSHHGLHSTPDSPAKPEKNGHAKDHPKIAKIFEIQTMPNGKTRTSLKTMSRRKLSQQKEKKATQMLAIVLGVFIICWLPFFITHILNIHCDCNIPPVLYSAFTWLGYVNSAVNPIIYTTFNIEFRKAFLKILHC
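DiscoveRx PathHunter D2 beta-arrestin cells (2,100/well) attached overnight, then compound-stimulated 90 min at 37 C in HBSS/10 mM HEPES/0.1% Tween-20 buffer; beta-galactosidase complementation read by luminescence after 1 h at ambient temperature. Dopamine 57 uM final (EC100) as control.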
Six1-Eya2 inh – Six1/Eya2 interaction inhibition; Q15475+O00167; AlphaScreen GST-Six1/His-Eya2 binding, biochemical; hits give low values; control for the full effect not named in the record; activity change, % (test concentration not listed); hit rate 0.56% among 360,000; AID 651725; in the data active = activity change below about -65%; inconclusive = about -30% to -65%; inactive = above about -30%; also: % is scaled to controls: 0 for no effect and ±100 for the full control effect; compound concentration not given in the record
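GST-Six1 + His-Eya2 (5X stock: 250/500 nM); Tris pH 8.0, 300 mM NaCl, 0.05% BSA, 0.02% Tween 20; GSH donor/Ni acceptor beads; 1 h 37 °C dark; AlphaScreen readout.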
TRPML1 blocker – inhibitors of human TRPML1 channel; hit rate 0.02% among 390,000; TRPML1-inducible cells, Ca2+ dye fluorescence, FDSS; hits give low values; inhibition of EC80 agonist-evoked calcium signal; activity change, negative = inhibition, % (concentration not given with the values); AID 624415; in the data active means activity change below about -50%; inconclusive means about -30% to -50%; inactive means above about -30%;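 also: stimulus is agonist 54-4 at its EC80 concentration; % is scaled to controls: 0 for no effect and ±100 for the full control effect; compound concentration not given in the record; the text of the record puts the active cut at -80%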
Target sequence (Q9GZU1 whole entry, looked up): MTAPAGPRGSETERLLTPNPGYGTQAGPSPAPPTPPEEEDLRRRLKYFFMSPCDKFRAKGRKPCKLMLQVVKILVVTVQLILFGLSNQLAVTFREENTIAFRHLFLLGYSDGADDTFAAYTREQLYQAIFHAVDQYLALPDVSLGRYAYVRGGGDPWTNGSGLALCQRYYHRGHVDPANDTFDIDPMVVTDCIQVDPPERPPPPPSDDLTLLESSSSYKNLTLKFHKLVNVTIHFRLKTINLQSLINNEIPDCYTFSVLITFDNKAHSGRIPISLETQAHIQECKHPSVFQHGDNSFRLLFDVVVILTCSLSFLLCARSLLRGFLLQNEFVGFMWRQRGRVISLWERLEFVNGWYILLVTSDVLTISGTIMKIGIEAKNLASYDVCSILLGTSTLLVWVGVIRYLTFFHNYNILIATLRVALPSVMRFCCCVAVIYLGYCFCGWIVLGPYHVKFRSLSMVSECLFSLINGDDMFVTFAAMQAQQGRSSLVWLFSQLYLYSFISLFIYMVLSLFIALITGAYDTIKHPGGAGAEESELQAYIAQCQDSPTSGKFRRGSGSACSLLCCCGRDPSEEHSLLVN
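Calcium fluorescence in TRPML1-DL cells induced overnight with Tet: a 110 s read after compound pin addition, then a 110 s antagonist read after challenge with 54-4 at 4 uM final (EC80).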
PINK1 modulator – changes PINK1 expression | PINK1 immunofluorescence, high-content cytometry, 24 h | Potency, µM (top dose mostly 76.6 µM), inactives show top-dose activation (PINK1 increase), most hits filed as activators | hit rate 0.2% among 410,000; active = well fitted activation curve with a large enough effect; inconclusive = small, poorly fitted or top-dose-only effect; inactive = flat fitted curve, though single readings scatter; cell line not stated here;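 also: potency is read from the fitted curve at half-maximal effect; % of control where 0% means no effect; nearly all actives have a fitted effect of over 65% in size; a mitochondrial uncoupler was the plate control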
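Fluorescence from anti-PINK1 antibody, together with nuclear and cell stains, was scanned on a laser-scanning cytometer. Before staining, stable-line cells were incubated 24 hours with compounds at 5 concentrations; primary antibody 12 h at 10 degrees C.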
TRPML1 ag – activates the human TRPML1 channel; activation, % (concentration not given with the values); TRPML1-expressing cells, Ca2+ dye fluorescence, FDSS; host cell line not named in the record; reference of the full effect not given here; AID 624414; hit rate 0.12% among 410,000; in the data active = activation above about 50%; inconclusive = about 30% to 50%; inactive = below about 30%; also: 0% is about no effect; the text of the record puts the active cut at 80%
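Calcium fluorescence on an FDSS kinetic reader gave the read-out. Tet-induced TRPML1-DL cells were plated overnight, dye-loaded (Ca8 with quencher, 45-90 min, room temperature, dark), then read 110 s after compound addition, and again 110 s after 4uM final 54-4 (EC80).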
* hit, by the source's call; u = inconclusive; x = not tested or not shown; [ ] = remark or other dose.

no.	mol	CtBP-E1A blk	D2 agonist	Six1-Eya2 inh	TRPML1 blocker	PINK1 modulator	TRPML1 ag
1	COc1ccccc1NC=C1C(=O)OC(C)(C)OC1=O	-1.8	0.3	5.1	3.0	-0.1%	-1.2
2	CCN(c1ccc2c(c1)OCO2)S(=O)(=O)c1cc2c(cc1Br)CCN2C(=O)C1CC1	2.3	-1.1	-5.5	1.3	-1.2%	1.7
3	CCCc1c(C(=O)O)cnn1-c1ccc(Cl)cc1	6.2	6.9	0.6	-2.5	0.0%	0.9
4	Nc1ncnc(N2CCOCC2)c1N	4.1	3.0	-0.3	29.2	1.9%	-0.7
5	NC(=O)c1ccc(NC(=O)COc2cccc3ccccc23)cc1	5.4	7.9	1.6	7.2	-0.5%	0.2
6	COc1ccc(OC)c(NC(=O)CS(=O)(=O)Cc2nc(-c3ccc(C)cc3)oc2C)c1	x	x	x	3.8	-1.6%	0.4
7	CCn1c(Cc2ccccc2)nnc1SCC(=O)NC1CC1	3.8	-0.7	-1.2	33.7	0.6%	1.1
8	NC(=S)N/N=C/c1ccccc1O	-68.1*	-8.2	-87.5*	x	-0.8%	x
9	CCc1cc(=O)[nH]c(SC/C=C/c2ccccc2)n1	x	-0.7	4.1	19.2	3.6%	2.7
10	CSc1ccc(CN(C)C(=O)C(Cc2ccccc2)NC(=O)c2ccccc2)cc1 (stereo not given)	-4.9	-1.0	-14.2	1.0	u	1.1
11	COCC1CCN(Cc2c(C(=O)N3CCc4ccccc4C3)nc3ccc(Cl)cn23)C1 (stereo not given)	0.1	2.0	-2.9	-8.9	1.6%	0.6
12	COC(=O)[C@]1(C)N[C@H](CN(C)S(=O)(=O)c2ccc(C(F)(F)F)cc2)[C@@H]2C(=O)N(C)C(=O)[C@@H]21	11.4	1.1	5.4	0.2	1.2%	-0.3
13	CCOc1cc(CNc2ccc(N(C)C)cc2)cc(Br)c1OCC(=O)NC(C)(C)C	u	0.5	-3.6	16.1	8.6%	-0.1
14	COC(=O)c1cc(NC(=O)c2ccc(-c3ccc(Cl)cc3Cl)o2)cc(C(=O)OC)c1	x	x	x	16.1	0.7%	-0.1
15	Cc1nc2ccccc2[nH]c1=O	7.1	0.8	10.9	-19.3	2.2%	-0.6
16	C=CCNC(=S)Nc1ccccc1	2.4	-4.8	5.5	0.1	x	0.8
17	Cn1cc(/C=N/n2cnc3scc(-c4ccc(Cl)cc4)c3c2=O)c2ccccc21	-1.1	-1.4	-1.7	9.4	0.4%	1.0
18	CC(=O)Nc1ccc(NC(=O)COC(=O)c2c3c(nc4ccccc24)CCN(Cc2ccccc2)C3)cc1	-18.0	5.0	-17.2	-1.3	-1.1%	1.3
19	O=C(CNC(=O)c1ccc(Br)o1)Nc1cccc(-c2cnc3ccccc3n2)c1	-2.8	-1.8	1.7	-2.2	9.5%	2.7
20	CN1CCN(C(=O)C2CCN(S(=O)(=O)c3cnc[nH]3)CC2)CC1	1.9	-2.7	3.9	1.6	-0.1%	0.2
21	COc1ccc(Nc2ncc(C(=O)N3CCN(Cc4ccccc4)CC3)c3ccccc23)cc1	-9.0	-5.1	-22.9	-7.7	-6.5%	-0.4
22	CS(=O)(=O)c1cccc(-c2nnc(NC(=O)C3=COCCO3)o2)c1	-8.4	-0.5	-22.7	11.6	0.4%	0.1
23	CC(C)(C)NC(=O)CCN(/N=C/c1ccncc1)C1=NS(=O)(=O)c2ccccc21	-82.1*	-3.5	-67.9*	2.9	1.6%	0.7
24	COc1c(C)cccc1C(=O)NCCCNC(=O)c1ccc(C)nc1	5.9	-0.2	0.4	-7.9	1.5%	0.9
25	c1ccc(N2CCN(c3nc4ccccc4n4cnnc34)CC2)cc1	-1.2	-4.9	-11.2	-5.6	1.1%	-0.4
26	C=CCSC1=C(C#N)C(c2ccccc2C)CC(=O)N1 (stereo not given)	6.9	-4.6	-1.1	-21.0	3.7%	-0.2
27	Cc1ccc(CC(=O)O/N=C(\N)c2cccc([N+](=O)[O-])c2)cc1	-4.8	-3.1	-2.8	-6.0	0.1%	5.1
28	CN(Cc1ccco1)C(=O)C1CCCN(c2ncnc3c2nc2n3CCCCC2)C1 (stereo not given)	x	-4.0	1.8	-13.3	0.2%	0.9
29	CC(C)c1ccc2oc(=O)cc(CN3CCOCC3)c2c1	x	-6.4	-3.1	-18.8	-0.8%	0.3
30	C/C(=N/NS(=O)(=O)c1ccc(F)cc1)c1ccc(NC(=O)c2ccc(C)o2)cc1	-0.6	-3.3	-3.5	0.3	0.5%	-0.5

(listing goes on)
no.	mol	CtBP-E1A blk	D2 agonist	Six1-Eya2 inh	TRPML1 blocker	PINK1 modulator	TRPML1 ag
31	CC(=O)N1CCN(S(=O)(=O)c2cccc(C(=O)NCCc3ccc(Cl)cc3)c2)CC1	-0.7	0.1	9.9	-17.6	0.9%	-0.1
32	Cc1onc(-c2c(F)cccc2Cl)c1C(=O)c1ccc(F)cc1	4.5	-2.7	-3.4	0.2	2.9%	0.9
33	Cc1ccc(S(=O)(=O)N2CCCCC2CCNC(=O)C(=O)NC2CCCC2)cc1 (stereo not given)	1.7	-7.8	0.0	6.7	-0.6%	1.5
34	COc1ccc(NC(=O)C2CCCN(c3ncnc4c3nc3n4CCCCC3)C2)c(OC)c1 (stereo not given)	x	x	x	-9.4	2.7%	-0.8
35	Cn1c(CNC(=O)CCNC(=O)c2cccc(Br)c2)cc(=O)n(C)c1=O	-1.6	-0.6	4.6	-5.6	0.3%	0.1
36	Cc1ccccc1NC(=O)C1c2cccc[n+]2CC(=O)N1c1c(C)cccc1C (stereo not given)	-6.3	-2.2	-6.8	2.5	1.4%	0.9
37	O=C(O)COc1ccccc1O	-2.4	1.3	4.8	-7.6	-5.1%[38.3 µM]	0.3
38	CCN(CC)CCCn1c2c(c(SCC(=O)Nc3cccc(C(C)=O)c3)nc1=O)CCC2	-1.2	-1.4	-1.1	26.1	-1.6%	-0.3
39	CC[C@@H](Nc1ncnc2c1oc1ccccc12)C(=O)O	-1.2	-5.4	2.0	x	1.2%	x
40	O=C(C[C@H]1C/C=C\C[C@H](NC(=O)OCC2c3ccccc3-c3ccccc32)C(=O)OC[C@@H]2CCCN2C1=O)N[C@H](CO)Cc1ccccc1	x	-2.2	6.5	-6.6	0.7%	-0.3
41	COC(=O)c1ccccc1NC(=O)c1cnc(Nc2ccc(OC)cc2)c2ccccc12	x	x	x	16.8	1.7%	1.8
42	Cc1ccc(C)c(N2CCN(C(=O)CCc3nc(-c4ccccc4)no3)CC2)c1	3.4	2.3	-0.1	-7.4	0.2%	-0.4
43	CC[C@]12c3[nH]c4ccc(OC)cc4c3CCN1C(=O)C(CC(=O)NCCC1=CCCCC1)C[C@@H]2C(=O)N1CCN(C(=O)C2CC2)CC1 (stereo not given in full)	2.1	-1.1	5.9	-8.5	1.1%	-0.2
44	O=C(NC1CCCC1)c1cc(-c2ccc(F)cc2)on1	3.3	7.8	5.1	5.8	2.4%	-0.2
45	NC(=O)C(CCC(=O)c1ccc(Br)cc1)S(=O)(=O)c1ccccc1 (stereo not given)	-2.7	0.9	4.5	6.7	-0.5%	-0.7
46	CC1Sc2ccc(S(=O)(=O)CCC(=O)NCc3ccccc3)cc2NC1=O (stereo not given)	-1.9	-1.6	1.5	27.0	1.4%	0.3
47	Clc1ccc(-c2n[nH]c3c2CCCC3)cc1	14.7	0.8	0.7	-12.9	u	0.2
48	COc1ccc(OC)c(Nc2nc(NCCCN(C)C)nc(N)c2[N+](=O)[O-])c1	u	-7.8	u	11.8	-1.7%	-0.6
49	NNc1ccc2c(C(F)(F)F)cc(C(F)(F)F)nc2n1	-0.7	0.2	-2.5	-5.9	4.1%	-0.4
50	CC1CCCCN1S(=O)(=O)c1cc2c3c(c1)CC(=O)N3CCC2 (stereo not given)	x	x	x	-21.6	1.8%	-0.9
51	CCn1cc(C(=O)NCCC(C)C)c(=O)c2cc(S(=O)(=O)N(C)C3CCCCC3)ccc21	x	x	x	22.2	1.3%	-1.1
52	Cc1cccc(-c2n[nH]c(=S)n2Cc2ccccc2)c1	-4.3	1.8	1.2	-2.6	0.5%	1.4
53	Cc1ccc(C)c(N2CCN(S(=O)(=O)c3cccc4cccnc34)CC2)c1	x	3.3	2.4	6.6	-0.4%	0.9
54	COc1ccc(/C=C(/C#N)c2nc(-c3ccc(-c4ccccc4)cc3)cs2)cc1OC	x	x	x	-6.4	-0.4%	1.1
55	CCc1nc2ccc(C(=O)N(CC)CCN(C)C)cn2c1N(C=O)CCC(C)C	1.3	-3.7	2.2	x	0.7%	0.0
56	CC(=O)Nc1ccc(NC(=O)C(C)OC(=O)COc2ccc(Nc3ccccc3)cc2)cc1 (stereo not given)	6.5	7.0	-10.0	5.0	1.8%	0.2
57	C=CCN(C(=O)Nc1ccc2c(c1)nc(C)n2C)c1ccccc1	4.3	-0.3	26.2	7.7	1.6%	0.1
58	COc1ccc(NC(=S)NC(NC(=O)CCl)C(Cl)(Cl)Cl)c([N+](=O)[O-])c1 (stereo not given)	x	u	-3.1	-2.0	0.1%	0.9
59	COC(=O)c1ccccc1NC(=S)NC(=O)COc1ccccc1	5.7	-3.4	3.2	-11.2	2.5%	-0.5
60	CC1CCN(C(=O)CCCNC(=O)Cn2cnc3sc4c(c3c2=O)CCCC4)CC1	5.8	-1.9	7.9	-7.4	2.0%	0.4

Additional results follow:
no.	mol	CtBP-E1A blk	D2 agonist	Six1-Eya2 inh	TRPML1 blocker	PINK1 modulator	TRPML1 ag
61	O=C(OCCN1CCN(C2=NS(=O)(=O)c3ccccc32)CC1)c1cccc(Br)c1	0.3	-5.4	-12.5	4.1	1.1%	0.1
62	O=C(Nc1cccnc1)Nc1ccccn1	-1.1	-1.3	-0.9	10.2	-2.3%	3.1
63	Cc1cc(C)cc(Cn2c3ccc(NC(=S)NCc4ccccc4F)cc3c(=O)n2C)c1	-5.0	10.6	-13.8	x	1.5%	-1.0
64	O=C(Nc1ccccc1)c1nc2ccccc2s1	25.8	2.7	13.6	0.8	2.8%	-0.1
65	CCC1CN(C(=O)C2CCN(S(=O)(=O)c3c(C)noc3/C=C/c3ccccc3F)CC2)c2cc(Cl)ccc2O1 (stereo not given)	x	x	x	34.3	-0.3%	-0.7
66	COc1ccc(-c2cn3c(n2)sc2cc(C(=O)Nc4ccc(C)cc4C)ccc23)cc1	x	x	x	0.6	2.4%	-0.4
67	Cc1ccccc1OCC(=O)OCC(=O)Nc1cc(C(F)(F)F)ccc1N1CCOCC1	0.1	-5.0	12.0	33.4	0.2%	5.2
68	O=C(NC(Cc1ccccc1)C(=O)O)/C(=C\c1ccco1)NC(=O)c1ccco1 (stereo not given)	2.6	4.0	4.0	-14.4	0.9%	1.5
69	COc1ccc(CN2C3CCC2CC(NC(=O)c2cc(OC)c(OC)c(OC)c2)C3)cc1 (stereo not given)	-9.6	-5.7	2.9	24.6	-0.2%	0.4
70	CCN1CCN(CCCN(Cc2ccco2)C(=S)Nc2ccccc2Cl)CC1	-1.8	-1.6	-1.5	-4.1	1.1%	0.1
